Screening data (PubChem BioAssay)
MT1-MMP act inh – inhibitors of human MT1-MMP activation. P50281. GFP/RFP ratio change, % at 20 µM. 360,000 compounds, 0.061% hits. HT1080 RFP-PRO-GFP cells, GFP/RFP ratio fluorescence, overnight; percent of plate control window, DMSO zero;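 active means GFP/RFP ratio change of at least 30% with cell ATP level not reduced by more than half and red fluorescence within 50% of control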; further: strong numbers were not always called active
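Assay system: HT1080 cells carrying an RFP-PRO-GFP reporter | Dosing: Single dose of 20 µM compound, 1% DMSO final | Incubation: Cells overnight before dosing, compound overnight, 37 °C, 5% CO2 | Evaluation: GFP/RFP fluorescence ratio | Control set: DMSO and RFP-L50D-GFP cell wells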
Env fusion inh – blocks HIV Env-driven cell-cell fusion. HeLa-JRFL Env/CEM21 cell fusion, luciferase. inhibition, % at 12.3 µM. 360,000 compounds, 1.1% hits. AID 651610;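 active means mean replicate inhibition score of at least 50 and every replicate individually at or above 50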;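 further: 0% = plate neutral controls and 100% = maraviroc near 300 nM; one replicate is shown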
Rce1 inhib – blocks yeast Ras-converting enzyme | calls only | AID 2563 | Q03530 | yeast membranes, quenched prenylated peptide cleavage fluorescence | 290,000 compounds, 0.27% hits;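 active means fall in fluorescence gain of 50% or more versus controls, with final raw signal at or below 3038400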;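 further: plate controls were neutral control wells for no effect and wells lacking membranes for full effect; tested at 10 µM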
Target sequence (Q03530 whole entry, looked up): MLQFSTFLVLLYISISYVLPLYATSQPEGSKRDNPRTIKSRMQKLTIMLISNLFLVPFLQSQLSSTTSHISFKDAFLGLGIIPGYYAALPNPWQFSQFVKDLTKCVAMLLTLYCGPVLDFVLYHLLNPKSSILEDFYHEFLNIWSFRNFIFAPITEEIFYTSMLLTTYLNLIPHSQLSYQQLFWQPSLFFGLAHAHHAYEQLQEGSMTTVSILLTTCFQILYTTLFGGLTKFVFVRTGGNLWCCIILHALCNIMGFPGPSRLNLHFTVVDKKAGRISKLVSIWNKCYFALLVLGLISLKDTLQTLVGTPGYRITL
eIF4H FP inh – inhibitors of RNA binding by human eIF4H | eIF4H fluorescence polarization binding assay | 290,000 compounds, 0.94% hits | Q15056 | inhibition, % at 35 µM | AID 2012;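 active means 50% or more with normal probe brightness, or confirmed in later tests; about a fifth of its hits are not listed in these tables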;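 further: calls also rest on retests at 20 µM and on dose response follow-up; 0% = protein and probe with vehicle and 100% = probe without protein; strong numbers were not always called active; many hits fall short of the cut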
Yeast UUG start – alters start codon recognition fidelity in yeast. activity score, % at 18.7 µM. AID 602363. 350,000 compounds, 0.13% hits. S. cerevisiae UUG-firefly luciferase reporter, luminescence/redox ratio;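 active means replicate mean at a twofold rise or more, about +100% in these data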;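 further: firefly luciferase made from a UUG start codon reports start codon fidelity; reporter light over untreated wells divided by growth signal over untreated wells; some hits fall short of that in this replicate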
CSC inhib – cancer stem cell inhibition | inhibition, % at 7.5 µM | cancer stem cell-like cells viability, luminescence | 300,000 compounds, 1.1% hits;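 active means mean at 75% or more and at least half the replicates too; tested in HMLE shEcad cells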;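 further: 0% = median of negative and 100% = median of positive control wells; the first replicate is given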
PABP polyA inh – PABP-poly(A) binding inhibition; PABP-poly(A) RNA binding, fluorescence polarization; 290,000 compounds, 1% hits; inhibition, % at 35 µM; P11940;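 active means 50% or more with normal probe brightness, or confirmed in later tests; about a fifth of its hits are not listed in these tables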;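 further: calls also rest on retests at 20 µM and on dose response follow-up; controls were probe without protein and protein plus probe with vehicle; some compounds called inactive have numbers as strong as hits; many hits fall short of the cut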
Target sequence (P11940 whole entry, looked up): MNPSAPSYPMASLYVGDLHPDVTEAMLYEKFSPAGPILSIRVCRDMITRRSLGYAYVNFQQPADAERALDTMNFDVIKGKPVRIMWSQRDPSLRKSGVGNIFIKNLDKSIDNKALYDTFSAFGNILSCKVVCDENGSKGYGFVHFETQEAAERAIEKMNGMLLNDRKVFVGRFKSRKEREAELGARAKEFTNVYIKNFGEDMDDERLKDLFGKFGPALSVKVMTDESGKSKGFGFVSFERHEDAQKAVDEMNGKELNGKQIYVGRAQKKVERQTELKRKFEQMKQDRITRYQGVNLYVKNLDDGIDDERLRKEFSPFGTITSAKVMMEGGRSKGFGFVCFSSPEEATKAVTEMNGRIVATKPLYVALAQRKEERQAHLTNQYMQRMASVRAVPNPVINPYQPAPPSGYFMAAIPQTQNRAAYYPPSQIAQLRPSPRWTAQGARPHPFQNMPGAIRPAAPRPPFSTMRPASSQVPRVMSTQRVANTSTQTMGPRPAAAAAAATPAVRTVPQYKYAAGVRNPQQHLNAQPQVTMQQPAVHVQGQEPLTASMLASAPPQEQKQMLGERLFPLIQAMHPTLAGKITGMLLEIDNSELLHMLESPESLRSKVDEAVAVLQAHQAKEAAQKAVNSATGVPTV
MT1-MMP act inh RFP – second read-out of MT1-MMP act inh, no call of its own (marks repeat the call); RFP signal change, %; measured here: RFP expression control read;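 0 = vehicle wells; hits needed this value within 50% of zero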
The depositor's hits bear a star; i = inactive; . = not tested or not shown. An excerpt; the hit share may differ from the screen's.

entry | SMILES | MT1-MMP act inh | MT1-MMP act inh RFP | Env fusion inh | Rce1 inhib
1 | COc1cc(NC(=O)C2CCCC2)c(OC)cc1Cl | -3 | -1 | . | i
2 | Cn1nccc1CNC(=O)c1c(Cl)cnn1C | 0 | 3 | -6 | i
3 | CCN(Cc1ccccc1)c1ccc(/C=N/N2CCOCC2)cc1 | -5 | -3 | -15 | i
4 | Cc1cc(C)n(/N=C/c2cccc([N+](=O)[O-])c2)c(=O)c1 | -2 | 1 | . | i
5 | CCn1nc(NC(=O)c2ccncc2)c2cc3ccc(C)cc3nc21 | 4 | -4 | -80 | i
6 | COc1ccc(CCNC(=O)COC(=O)Cc2cccc(F)c2)cc1 | 0 | 0 | -3 | .
7 | CCN(CC)S(=O)(=O)c1cccc(-c2nnc(SCc3nnc(-c4ccccc4)o3)n2C)c1 | 4 | 8 | . | i
8 | CCOC(=O)c1sc2nc(N3CCOCC3)c3c(c2c1N)CCN(Cc1ccccc1)C3 | -4 | -3 | . | i
9 | COC(=O)c1cccc(NC(=S)N2CCN(C)CC2)c1 | 1 | 5 | -77 | i
10 | COc1ccc(C(=O)NNC(=O)CSc2nnc(-c3cccnc3)o2)cc1 | 2 | 2 | 1 | i
11 | Cc1ccc(NC(=O)OCc2cccs2)cc1 | . | . | . | i
12 | CC(C)(C)c1ccc(N2C(=O)Cc3c2nc(N)c(C#N)c3N)cc1 | -7 | -6 | -9 | i

entry | eIF4H FP inh | Yeast UUG start | CSC inhib | PABP polyA inh
1 | -6 | -22 | -11 | 3
2 | 11 | . | . | -6
3 | -6 | . | 0 | 5
4 | -3 | . | . | 1
5 | 2 | 0 | . | -4
6 | . | 11 | . | .
7 | -1 | . | -2 | 5
8 | 4 | -8 | 0 | 5
9 | -2 | -18 | -25 | 0
10 | 2 | . | 4 | 2
11 | -12 | . | -6 | 1
12 | -7 | -6 | . | 6

More results follow:
entry | SMILES | MT1-MMP act inh | MT1-MMP act inh RFP | Env fusion inh | Rce1 inhib
13 | CC(=O)Nc1c(C(N)=O)oc2ccc(Cl)cc12 | 2 | 8 | 5 | i
14 | CC(CCc1ccccc1)NC(=O)CN1CCN(Cc2ccccc2)C1=O (stereo not drawn) | -4 | -7 | 8 | i
15 | COc1cc([N+](=O)[O-])ccc1NC(=O)COC(=O)CCOc1ccc(C)cc1 | -9 | -6 | . | .
16 | CC(C)NC(=O)c1cccc(Cn2cc(Cl)cn2)c1 | -1 | 1 | 4 | i
17 | CC(=O)N1CCN(c2ccccc2NC(=O)Cc2ccc(Cl)cc2)CC1 | -2 | 2 | -7 | i
18 | O=C(CN1CCN(Cc2ccccc2)CC1)Nc1ccc(-n2cnnn2)cc1 | -1 | 2 | -10 | i
19 | CCN(CC)CCN1C(=O)C(O)=C(C(=O)c2sc(C)nc2C)C1c1cccnc1 (stereo not drawn) | -3 | 2 | -4 | i
20 | COc1cc(OC)c(NS(=O)(=O)c2c(C)[nH]c(=O)[nH]c2=O)cc1Cl | 2 | 3 | -3 | i
21 | O=C(c1cccc(Br)c1)N1CCN(C2=NS(=O)(=O)c3ccccc32)CC1 | -3 | 3 | 18 | i
22 | CC(C)(O)C(=O)NN(C(=O)c1ccccc1)c1cccc(Br)c1 | 4 | 3 | . | i
23 | Cc1ccc(O)c(C2=NNC(c3ccc(Cl)cc3)C2)c1 (stereo not drawn) | 0 | -6 | -17 | i
24 | CC(=O)c1ccc(NC(=O)/C(=C\c2ccccc2)NC(=O)c2ccco2)cc1 | -1 | -4 | -49 | i

entry | eIF4H FP inh | Yeast UUG start | CSC inhib | PABP polyA inh
13 | 3 | . | -8 | 6
14 | 5 | -12 | -6 | -10
15 | . | -19 | 18 | .
16 | 8 | -11 | 0 | -5
17 | -8 | -11 | -13 | -24
18 | -7 | -11 | -3 | -8
19 | -6 | 1 | 11 | -2
20 | -6 | -7 | -4 | 6
21 | -3 | -12 | -11 | -4
22 | 12 | -12 | -17 | 5
23 | -12 | -17 | 19 | -1
24 | 14 | -2 | -5 | 17

In a second layout: results already given
entry | compound | MT1-MMP act inh | MT1-MMP act inh RFP | Env fusion inh | Rce1 inhib | eIF4H FP inh | Yeast UUG start | CSC inhib | PABP polyA inh
13 | CC(=O)Nc1c(C(N)=O)oc2ccc(Cl)cc12 | 2 | 8 | 5 | i | 3 | . | -8 | 6
14 | CC(CCc1ccccc1)NC(=O)CN1CCN(Cc2ccccc2)C1=O (stereo not drawn) | -4 | -7 | 8 | i | 5 | -12 | -6 | -10
15 | COc1cc([N+](=O)[O-])ccc1NC(=O)COC(=O)CCOc1ccc(C)cc1 | -9 | -6 | . | . | . | -19 | 18 | .
16 | CC(C)NC(=O)c1cccc(Cn2cc(Cl)cn2)c1 | -1 | 1 | 4 | i | 8 | -11 | 0 | -5
17 | CC(=O)N1CCN(c2ccccc2NC(=O)Cc2ccc(Cl)cc2)CC1 | -2 | 2 | -7 | i | -8 | -11 | -13 | -24
18 | O=C(CN1CCN(Cc2ccccc2)CC1)Nc1ccc(-n2cnnn2)cc1 | -1 | 2 | -10 | i | -7 | -11 | -3 | -8

The list continues:
entry | SMILES | MT1-MMP act inh | MT1-MMP act inh RFP | Env fusion inh | Rce1 inhib
25 | CCCCCCSc1ccc([C@H]2N[C@@](CC(C)C)(C(=O)OC)[C@H]3C(=O)N(C)C(=O)[C@@H]23)cc1OC | -7 | -10 | 30 | i
26 | Cc1cc(Cl)c(OCCCN2CCCCC2)c(Br)c1 | 5 | 8 | -12 | i
27 | COc1ccc(/C=C(/NC(=O)c2cccc([N+](=O)[O-])c2)C(=O)O)cc1 | 4 | 6 | -12 | i
28 | CC(=O)Oc1cc2c(C(C)=O)coc2c2ccccc12 | 1 | 3 | -305 | .
29 | O=C(Nc1ccc(OC(F)(F)F)cc1)c1ccc2c(c1)no[n+]2[O-] | -28 | -29 | -32 | i
30 | Cc1ccc(C(=O)COC(=O)c2cc(=O)[nH]c3ccccc23)cc1 | 2 | 1 | 17 | i
31 | Cc1ccc(Cn2c(SCC(=O)NCC3CCCO3)nc3c2c(=O)n(C)c(=O)n3C)cc1 (stereo not drawn) | 1 | 4 | 16 | i
32 | COc1ccccc1CNC(=O)c1ccc(SC)cc1OC | -4 | -1 | . | i
33 | CCC(=O)Nc1cc2nn(-c3ccc(OC)cc3)nc2cc1C | 3 | -5 | . | i
34 | CCCn1nnc(NC(=O)c2cc(Br)cc(Br)c2OC)n1 | 2 | 1 | -14 | i
35 | O=C(Nc1ccc(S(=O)(=O)N2CCCCC2)cc1)C1CC(=O)N(c2ccc(Cl)cc2)C1 (stereo not drawn) | 2 | 0 | 5 | .
36 | Cc1cccc(N2CCC(N=CN(C)C)=N2)c1 | -4 | 4 | -8 | i

entry | eIF4H FP inh | Yeast UUG start | CSC inhib | PABP polyA inh
25 | . | -3 | 38 | .
26 | 7 | . | . | -1
27 | -4 | . | -2 | 7
28 | 8 | -5 | -10 | 8
29 | . | . | 42 | .
30 | -9 | . | -7 | -18
31 | 5 | -15 | -11 | 0
32 | -4 | -5 | 2 | -6
33 | -5 | -14 | . | -4
34 | -5 | 0 | -1 | 13
35 | -11 | -18 | 20 | 6
36 | -3 | -23 | -7 | 17

Random excerpt: 2 compounds from above
entry | SMILES | MT1-MMP act inh | MT1-MMP act inh RFP | Env fusion inh | Rce1 inhib
28 | CC(=O)Oc1cc2c(C(C)=O)coc2c2ccccc12 | 1 | 3 | -305 | .
29 | O=C(Nc1ccc(OC(F)(F)F)cc1)c1ccc2c(c1)no[n+]2[O-] | -28 | -29 | -32 | i

entry | eIF4H FP inh | Yeast UUG start | CSC inhib | PABP polyA inh
28 | 8 | -5 | -10 | 8
29 | . | . | 42 | .

(continued)
entry | SMILES | MT1-MMP act inh | MT1-MMP act inh RFP | Env fusion inh | Rce1 inhib
37 | O=C(CSc1nnnn1C1CC1)N1CCN(c2cccc(Cl)c2)CC1 | -2 | -24 | 3 | .
38 | CC(C(=O)N1CCc2ccccc2C1)N1C(=O)c2ccccc2C1=O (stereo not drawn) | -2 | 0 | 8 | i
39 | COc1ccc(CCn2c(-c3ccc(C(C)(C)C)cc3)n[nH]c2=S)cc1OC | 2 | -3 | 12 | .
40 | N#CCC(=O)Nc1ccc(C(=O)NCC2(N3CCOCC3)CCCCC2)cc1 | 1 | 9 | 6 | .
41 | COc1cc(OC)cc(C(=O)NCCN2C(=O)S/C(=C\c3cccs3)C2=O)c1 | 2 | -11 | 33 | i
42 | CCCCC1(C)NC(=O)c2c(C)sc(C(=O)OCC)c2N1 (stereo not drawn) | -5 | -8 | . | i
43 | COc1ccc2c(c1)C(=O)Cc1ccccc1O2 | 1 | 7 | -15 | i
44 | Cn1c(SCC(=O)O)nc2ccccc2c1=O | 0 | 2 | . | i
45 | CCOc1ccccc1OCC(=O)NCc1ccco1 | 0 | 5 | . | i
46 | C=CCNc1nnc(C)c2ccccc12 | 2 | 2 | -12 | i
47 | O=C(Nc1cccc(F)c1)c1sc(Cl)nc1-c1ccccc1 | -2 | -6 | -14 | i
48 | O=S(=O)(NCc1cn2ccccc2n1)c1cccs1 | -4 | 9 | -14 | i

entry | eIF4H FP inh | Yeast UUG start | CSC inhib | PABP polyA inh
37 | . | -14 | -1 | .
38 | -10 | . | -7 | -2
39 | 2 | -18 | -3 | -5
40 | . | -12 | . | .
41 | -1 | . | -14 | -2
42 | -5 | 10 | -2 | -4
43 | . | -10 | 5 | .
44 | 1 | -11 | 0 | -6
45 | 34 | 13 | -2 | 21
46 | -5 | -18 | -3 | -1
47 | -11 | 5 | -11 | -4
48 | -1 | -16 | -1 | 2

More results
entry | SMILES | MT1-MMP act inh | MT1-MMP act inh RFP | Env fusion inh | Rce1 inhib
49 | COc1ccc(CNC(=O)CN(c2cc(C)cc(C)c2)S(=O)(=O)c2c(C)noc2C)cc1 | -2 | 4 | -66 | i
50 | COc1ccc(/C=C(\C#N)C(=O)OCC(=O)N(C)C2CCS(=O)(=O)C2)cc1 (stereo not drawn) | . | . | 16 | i
51 | Cc1nc(S(=O)(=O)Cc2ccccc2Cl)nc2c1CCC2 | -1 | 2 | 3 | i
52 | CC(=O)NC1CSCC1OC(C)=O (stereo not drawn) | 3 | 4 | . | i
53 | CC(C)(C)NC(=O)NC(=O)COC(=O)CNC(=O)C1CCCCC1 | 0 | 8 | -7 | i
54 | CN(C1=NS(=O)(=O)c2ccccc21)c1ccc(OC(=O)c2ccccc2F)cc1 | -2 | -4 | -9 | .
55 | CC1=C(C(=O)Nc2ccc(F)cc2)C(c2cccc(C)c2)n2nc(CCCO)nc2N1 (stereo not drawn) | 1 | 6 | -20 | i
56 | CCCCN=CC1=C(O)C(C(=O)OC)C(C)(C)CC1=O (stereo not drawn) | 4 | 2 | . | i
57 | C=CCOc1c(Br)cc(CNc2ccc3[nH]c(=O)[nH]c3c2)cc1OCC | -5 | 0 | -3 | i

entry | eIF4H FP inh | Yeast UUG start | CSC inhib | PABP polyA inh
49 | 3 | -8 | -7 | 0
50 | . | . | 6 | .
51 | -4 | . | 3 | 1
52 | -3 | -14 | -11 | 3
53 | -4 | . | 10 | -16
54 | . | -11 | . | .
55 | -10 | -26 | -8 | -10
56 | -9 | -6 | -12 | -6
57 | -5 | . | 1 | 6

Structural class, those above with a COOH group (2)
entry | SMILES | MT1-MMP act inh | MT1-MMP act inh RFP | Env fusion inh | Rce1 inhib
27 | COc1ccc(/C=C(/NC(=O)c2cccc([N+](=O)[O-])c2)C(=O)O)cc1 | 4 | 6 | -12 | i
44 | Cn1c(SCC(=O)O)nc2ccccc2c1=O | 0 | 2 | . | i

entry | eIF4H FP inh | Yeast UUG start | CSC inhib | PABP polyA inh
27 | -4 | . | -2 | 7
44 | 1 | -11 | 0 | -6
